Vaccinia Venus: vaccinia inhibition (Venus reporter); Vaccinia virus Venus reporter expression, fluorescence; Potency, µM (series often up to 36.5 µM), for the others: top-dose activity change, negative = inhibition, usual class: inhibitors; actives 0.46% (n = 330,000); active means well fitted inhibition curve with a large enough effect; inconclusive means small, poorly fitted or top-dose-only effect; inactive means no such curve, though single readings can be large or run the other way; tested in A549 cells; also: nearly all actives have a fitted effect of over 30% in size; inactives centre near -10
VACV mCherry inh: inhibitors of vaccinia virus infection (mCherry reporter signal); Vaccinia virus mCherry reporter infection, fluorescence; about a quarter of the inactives have no number; Potency, µM (doses to about 36.5 µM), inactives show top-dose activity change, negative = inhibition, most hits filed as inhibitors; actives 0.63% (n = 310,000); AID 720579; active = well fitted inhibition curve with a large enough effect; inconclusive = small, poorly fitted or top-dose-only effect; inactive = no such curve, though single readings can be large or run the other way; tested in A549 cells; also: nearly all actives have a fitted effect of over 35% in size; inactives centre near -10
An asterisk follows results filed as active; i = inactive; ? = inconclusive; · = no result given; [ ] = remark or other dose. % is scaled to controls: 0 for no effect and ±100 for the full control effect; potency is read from the fitted curve at half-maximal effect.

Each structure is followed by: Vaccinia Venus | VACV mCherry inh
CCOc1ccc(C2c3[nH]c4ccccc4c3CCN2C(=O)CSc2ccccc2)cc1 (stereo not drawn)
  -10% | -9%
Cc1[nH]c(=O)[nH]c(=O)c1/C=N/NC(=O)[C@H](C)NC(=O)OC(C)(C)C
  5% | -1%
C=CCN1C(=O)c2ccc(C(=O)NCCc3ccc(F)cc3)cc2C1=O
  -4% | -13%
CC(=O)c1cccc(CN2CCN(CC=C(C)C)C(CCO)C2)c1 (stereo not drawn)
  -6% | -22%
Cn1ccnc1SCC(=O)c1cccc(C(F)(F)F)c1
  -5% | -6%
COc1ccccc1OCC(=O)N(Cc1ccco1)Cc1ccccc1F
  -14% | -4%
COC(=O)c1c(NC2=NS(=O)(=O)c3ccccc32)sc2c1CCC(C(C)(C)C)C2 (stereo not drawn)
  9% | -26%
CNCc1ccccc1Sc1ccc(O)c(O)c1
  -9% | -23%
CCOC(=O)c1c(C)[nH]c(C(=O)C(C)OC(=O)c2cccc(OCc3c(C)noc3C)c2)c1C (stereo not drawn)
  ? | ·
C=C1CCN([C@H](C(=O)Nc2ccc(OC)cc2)C(C)C)S(=O)(=O)c2ccccc21
  -18% | ?
CCCNS(=O)(=O)c1ccc(OCC(=O)N2CCN(C)CC2)cc1
  1% | i
Cc1ccc(-n2c(C)nn(Cc3ccc([N+](=O)[O-])cc3)c2=O)cc1
  -22% | ?
O=S(=O)(NN=C1CCCCCCC1)c1ccc(Br)cc1
  0% | i
CC1(c2nnc(Cc3ccccc3)o2)CC(c2c(Cl)cccc2Cl)=NO1 (stereo not drawn)
  -1% | ?
CCc1nc(SCC(=O)NCC2CCCO2)c2oc3ccccc3c2n1 (stereo not drawn)
  -16% | ·
O=Cc1ccnc2ccccc12
  -5% | -17%
Cc1cc(C)n(-c2ccc(NC(=O)C3CCCCN3C(=O)c3cccs3)cc2)n1 (stereo not drawn)
  -9% | i
CC(=O)c1cccc(N(CC(=O)NC2CCCC2)C(=O)c2ccc(C)s2)c1
  -5% | -4%
CNC(=O)c1c(NC(=O)c2ccc(N3C(=O)CCC3=O)cc2)sc2c1CCCC2
  1% | 18%
COc1cccc(CNC(=S)NC2CCCC2)c1
  -7% | -9%
CCOP(=O)(OCC)C(Nc1cccc([N+](=O)[O-])c1)c1ccc(OC)cc1 (stereo not drawn)
  -15%[7.34 µM] | -8%[7.34 µM]
O=S(=O)(c1ccc(Cl)cc1)c1nc(-c2ccccc2F)oc1NCc1ccccc1
  -13% | -21%
CCOC(=O)c1cccc(NC(=O)CCCn2nc(C)c3c(C)n(-c4ccccc4)nc3c2=O)c1
  -10% | -19%
O=[N+]([O-])c1ccc(Oc2ccc(OCc3ccccc3)cc2)nc1
  -9% | -23%
COc1ccc(NCC(=O)Nc2ccc(Br)cc2F)c(OC)c1
  -8% | -26%
Cc1cnc2c(C)ccc(C)c2c1/C=C/c1ccc(N(C)C)cc1
  7% | 14%
COCc1ccc(CN2Cc3ccccc3OC(c3ccccc3OC)C2)o1 (stereo not drawn)
  5% | -6%
Cc1cc(/C=N\NC(=O)c2cccs2)c(C)n1-c1ccc2ncccc2c1
  ? | ·
CC1=C(C#N)C(NC(=O)C2CC2)(C(F)(F)F)C(=O)N1 (stereo not drawn)
  -13% | ·
Cc1cccc(C)c1NC(=O)CN(c1ccccn1)S(=O)(=O)c1ccccc1
  -13% | i
COc1ccccc1C1CCN(c2cc(O)ccc2[N+](=O)[O-])CC1
  -15% | -14%
CCOC(=O)NNS(=O)(=O)c1cc(Br)ccc1Br
  3% | -13%
CCO[C@@H]1OC(C(=O)Nc2ccccc2)=C[C@H](c2ccc3c(c2)OCO3)[C@H]1CCCO
  -2% | 35%[activator]
OC(c1ccccc1)(c1nc(-c2cccc3cccnc23)cs1)C(F)(F)F (stereo not drawn)
  -7% | 6%
CC(C)(C)S(=O)(=O)c1c(C(=O)O)cccc1C(=O)O
  -8% | -12%
Cc1n[nH]c(C)c1CCN(C)Cc1cn(C)nc1-c1ccc2c(c1)OCCO2
  -4% | -12%
COC1C(O)C(C)O[C@@H](OC2CC[C@@]3(C)C4CC[C@]5(C)C(C6=CC(=O)OC6)CC[C@@]5(O)C4CC[C@@H]3C2)C1O (stereo partly drawn)
  ? | ?
COc1ccccc1N1CCN(C(=O)/C=C/c2cccc([N+](=O)[O-])c2)CC1
  -16% | -20%
O=C1NC[C@@H](CCCCN2C[C@H](Cc3ccccc3)N(CC3CCCCC3)C(=O)C2=O)N(CCc2ccc(O)cc2)C1=O
  -11% | -13%
Cc1cc(C)n(-c2nnc(NC(C)(C)C)nn2)n1
  -9% | i
COc1ccc(CCN2CC(C(=O)N3CCC(O)(c4ccccc4)CC3)CCC2=O)cc1 (stereo not drawn)
  -14% | i
NNC(=O)C(=O)Nc1ccc(Cl)c(Cl)c1
  -13% | -20%
Cc1nn(-c2ccc(F)cc2)c(Cl)c1/C=C(/CCC(=O)O)c1nc2ccccc2s1
  -10% | i
CN1CCN(c2oc(-c3ccccc3F)nc2S(=O)(=O)c2ccc(Cl)cc2)CC1
  -21% | -18%
C=C1C(O)[C@@H]2O[C@]3(CC[C@H](/C=C/C(C)[C@@H]4CC(C)=CC5(O[C@H](C[C@@](C)(O)CO)CCC5O)O4)O3)CC[C@H]2O[C@@H]1C(O)CC(C)[C@H]1OC2(CCCCO2)CCC1C (stereo partly drawn)
  10µM* | ?

Some of the entries above in another layout:
SMILES: Cc1cc(C)n(-c2nnc(NC(C)(C)C)nn2)n1
  Vaccinia Venus: -9% | VACV mCherry inh: i
SMILES: COc1ccc(CCN2CC(C(=O)N3CCC(O)(c4ccccc4)CC3)CCC2=O)cc1 (stereo not drawn)
  Vaccinia Venus: -14% | VACV mCherry inh: i
SMILES: NNC(=O)C(=O)Nc1ccc(Cl)c(Cl)c1
  Vaccinia Venus: -13% | VACV mCherry inh: -20%

New compounds follow:
Each structure is followed by: Vaccinia Venus | VACV mCherry inh
CCOC(=O)c1nc2nc(C)c(Cl)c(=O)n2[nH]1
  -4% | -14%
Cc1ccc(N=C/C(C(=O)C(F)(F)F)=C(\O)c2cccs2)cc1
  ? | -15%
COc1ccc(CNC(=O)[C@H](NC(=O)C2CCN(C(=O)[C@@H](N)CCSC)CC2)C(C)C)cc1
  -6% | 2%
O=C(COc1ccccc1)Nc1ccc(CSc2ccccc2)cc1
  -23% | -29%
COc1ccc(OC)c(S(=O)(=O)N2CCC(C(=O)NCC3CCCO3)CC2)c1 (stereo not drawn)
  -8% | ·
O=P(Nc1cccnc1)(Oc1ccccc1)Oc1ccccc1
  -12% | ?
CNC(=O)[C@@H]1C[C@H](Sc2nc3ccccc3[nH]2)CN1Cc1cccc(C(F)(F)F)c1
  -6% | -9%
CC(C)(C)c1csc(NC(=O)Cn2cnc3ccccc3c2=O)n1
  -7% | i
CC(C)CCNC(=O)c1c(CSc2ccccc2)noc1C(=O)NCc1ccccc1
  -14% | i
Cc1ccc(C(=O)NCCCNC(=O)c2cccnc2)cc1
  21% | 27%
CNC(=O)c1ccc(NC(=O)c2nsc3ccccc23)cc1
  -20% | -14%
CC(C)(C)c1ccc(S(=O)(=O)NCc2ccc(C(=O)NCc3ccccn3)cc2)cc1
  -19% | -22%
COc1cc(-c2noc(C3CC(=O)N(c4ccc5c(c4)OCCO5)C3)n2)cc(OC)c1OC (stereo not drawn)
  7% | 7%
CCOc1ccc(NC(=O)CN(C)C(=O)c2ccc(N3CCCC3)c([N+](=O)[O-])c2)cc1OCC
  -17% | -16%
CCCCS(=O)CC(O)COCC (stereo not drawn)
  -8% | i
CC(C)(C)C1CCc2c(sc(NC(=O)c3noc4c3CCCC4)c2C#N)C1 (stereo not drawn)
  -25% | -20%
Cc1cc(C)nc(SCC(=O)Nc2ncc(Cc3cccc(Cl)c3)s2)n1
  ? | -15%
O=S(=O)(Nc1ccc(-c2ccc(NS(=O)(=O)c3ccccc3)cc2)cc1)c1ccccc1
  ? | -17%
COc1cc2c(cc1OC)C1=C(C#N)COCN1CC2
  -9% | -9%
CCc1nc(N2CCN(C(=O)c3ccccc3)CC2)c2c3c(sc2n1)CCCC3
  -12% | -21%
Cc1cc(S(=O)(=O)Nc2cc3c(cc2N2CCOCC2)n(C)c(=O)c(=O)n3C)ccc1F
  -9% | -14%
CN1C(=O)c2ccccc2Sc2ccc(NC(=O)COc3ccccc3)cc21
  -24% | -10%
O=c1c(-c2ccccc2)c[nH]n1-c1cccc([N+](=O)[O-])c1
  -17% | ?
COc1cc(-c2ccccc2)[nH]c(=S)n1
  -9% | -1%
COc1ccc2sc(-c3ccccc3OC)c(C#CC(C)(C)O)c2c1
  -16% | -27%
Cc1ccc(F)c(S(=O)(=O)NC(=O)C2(C)CCN2C(=O)Cc2cc(F)ccc2F)c1 (stereo not drawn)
  12% | i
COc1ccc(-c2c(C#Cc3ccsc3)c3cc(-c4cccc5[nH]ccc45)ccc3n2C)cc1
  -5% | ?
O=C(NC(=S)Nc1cccc2ncccc12)c1ccccc1
  -22% | i
CCS(=O)(=O)c1ccc2oc(SCC(=O)NC3CCCC(C)C3C)nc2c1 (stereo not drawn)
  ? | ?
CCCN1C(=O)SC(CC(=O)Nc2ccc(Br)cc2)C1=O (stereo not drawn)
  -25% | -24%
O=C(O)c1ccccc1C(=O)Nc1ccc(Oc2ccccc2)cc1
  -4% | -19%
O=C(NCCc1ccccc1)N1CCCC(CNS(=O)(=O)Cc2ccccc2)C1 (stereo not drawn)
  -11% | -17%
S=C(Nc1ccc(Oc2ccccc2)cc1)N1CCOCC1
  -15% | i
CN(Cc1ccco1)c1ccnc(-c2ccoc2)n1
  -8% | -6%
C=CCc1cccc(/C=C/c2cc(=O)c3ccccc3[nH]2)c1O
  0% | -5%
CCN(CC(=O)Nc1ccc(C(C)=O)cc1)CC(=O)Nc1cccc(OC)c1
  -22% | -19%
CC(C)[C@H](NC(=O)[C@H](CCCN=C(N)N)NC(=O)NC(Cc1ccccc1)C(=O)O)C(=O)NC(C=O)CCCN=C(N)N (stereo partly drawn)
  -7% | -10%
C[C@H]1CN([C@@H](C)CO)C(=O)Cc2cc(NC(=O)Nc3ccccc3)ccc2O[C@H]1CN(C)Cc1ccccc1
  -9% | ?
CCn1c(Cc2ccccc2)nnc1SCC(=O)Nc1ccc(C)cc1
  -10% | i
CC(C)(C)c1ccc(C(=O)C[n+]2cccc3cc(Cl)ccc32)cc1
  313%[activator] | -23%
O=C(CN(CCc1ccccc1)Cc1ccccc1)Oc1ccccc1P(=O)(O)O
  -5% | -1%
COC(=O)c1c(NC(=O)CSc2ncnc3ccccc23)sc(C)c1C
  -8% | 0%
CC1(C)C2SCC(=O)N2CCN1CC(=O)NN (stereo not drawn)
  0% | i
O=C(COC(=O)C1=COCCO1)NC1CCCCC1
  -7% | -10%
O=C1CC2(CCN(C(=O)C3CC(=O)N(c4ccccc4)C3)CC2)Oc2ccccc21 (stereo not drawn)
  -10% | i
O=C(CCl)N1CCN2C(=O)c3ccccc3C12c1ccc(Cl)cc1 (stereo not drawn)
  -5% | 4%
CCn1c(CNC(=O)c2ccccc2F)cc2ccccc21
  -7% | -14%
CCc1nn(CC(=O)Nc2cc(C)ccc2C)c(=N)s1
  1% | 9%
Cc1cc(C)cc(N2C(=O)CS(=O)(=O)C23C(=O)N(Cc2ccccc2)c2ccccc23)c1 (stereo not drawn)
  -5% | -5%
Cc1cccc(OCC(=O)Nc2cccc(OCc3cc(=O)n4cccc(C)c4n3)c2)c1
  -17% | -5%
COC(=O)c1c(NC(=O)CCC(=O)O)sc2c1CCCCC2
  -16% | -7%
CCc1nnc(NC(=O)CCN(c2cc(C)cc(C)c2)S(=O)(=O)c2ccc(Cl)cc2)s1
  -26% | -14%
Cc1ccc(-n2nc(C(=O)N3CCN(c4ccccc4F)CC3)c3c4ccccc4n(C)c3c2=O)cc1
  -4% | -4%
Clc1ccc(C2[C@H]3CN(CC4CCCCC4)[C@H](c4ccccc4)C34CC2(c2ccccc2)C4)cn1 (stereo partly drawn)
  -22% | ?
CCN(CC)CCNC(=O)/C(=C/c1cn(C)c2ccccc12)NC(=O)c1ccc(OC)c(OC)c1
  0% | ?
Cc1nnc(SCC(=O)N(C(C)C)C(C)C)[nH]c1=O
  3% | -6%
CCCNS(=O)(=O)c1cc(-c2nn3c(C)nnc3c3ccccc23)ccc1C
  -8% | 2%
CCCS(=O)(=O)N1CCC(C(=O)NCc2cccnc2)CC1
  -17% | ·
CCN(CC(=O)Nc1ccc(NC(C)=O)cc1)C(=O)/C=C/c1c(C)nn(-c2ccc(F)cc2)c1C
  -23% | -23%
COCCNC(=O)C1CCCN(C(=O)c2cc(-c3ccccc3)cs2)CC1 (stereo not drawn)
  10% | 46%[activator]
Cc1sc(NC(=O)CSc2nnnn2C2CCCCC2)c(C#N)c1C
  -9% | -10%

Some of these compounds in order of SMILES length, largest number first:
Each structure is followed by: Vaccinia Venus | VACV mCherry inh
Cc1ccc(-n2nc(C(=O)N3CCN(c4ccccc4F)CC3)c3c4ccccc4n(C)c3c2=O)cc1
  -4% | -4%
Cc1cc(C)cc(N2C(=O)CS(=O)(=O)C23C(=O)N(Cc2ccccc2)c2ccccc23)c1 (stereo not drawn)
  -5% | -5%
CCCNS(=O)(=O)c1cc(-c2nn3c(C)nnc3c3ccccc23)ccc1C
  -8% | 2%
